UUG fidelity – yeast start codon fidelity modulation | S. cerevisiae UUG-firefly luciferase reporter, luminescence/redox ratio | activity score, % at 18.7 µM | 350,000 tested, 0.13% active | AID 602363;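 active = replicate mean at a twofold rise or more, about +100% in these data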;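 note: firefly luciferase made from a UUG start codon reports start codon fidelity; reporter light over untreated wells divided by growth signal over untreated wells; some hits fall short of that in this replicate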
Numbers without * were called inactive. A portion of the library; count on the stated rates, not on these rows.

Compound,UUG fidelity
CO[C@H]1CN(C)C(=O)c2ccc(NC(=O)C3CCCCC3)cc2OC[C@@H](C)N(Cc2nccs2)C[C@H]1C,4
COc1ccc(CN(C)C[C@H]2Oc3c(NS(=O)(=O)c4ccc(F)cc4)cccc3C(=O)N([C@@H](C)CO)C[C@@H]2C)cc1,-1
COc1ccc(C#Cc2ccc([C@H]3[C@H](CO)N4CCCCN(Cc5ccccc5F)C[C@@H]34)cc2)cc1,-33
C[C@H](CO)N1C[C@H](C)[C@@H](CN(C)S(=O)(=O)c2cn(C)cn2)Oc2ccc(NC(=O)CCCCCC(=O)Nc3ccccc3N)cc2C1=O,-9
CS(=O)(=O)N1CCCCN2[C@H](C1)[C@H](c1ccc(-c3cccc(C#N)c3)cc1)[C@@H]2CO,-17
CO[C@H]1CN(C)C(=O)c2ccc(NC(=O)C3CCCC3)cc2OC[C@@H](C)N(C)C[C@H]1C,-6
Cc1ccc(S(=O)(=O)N(C)C[C@@H]2Oc3ccc(NC(=O)Nc4ccc(F)cc4)cc3C(=O)N([C@H](C)CO)C[C@H]2C)cc1,1
CCC(=O)NC[C@@H]1[C@H](c2ccc(-c3ccccc3)cc2)[C@H](CO)N1C(=O)C1CC1,-9
C[C@@H]1CN([C@H](C)CO)C(=O)c2cccc(NS(=O)(=O)c3ccccc3)c2O[C@H]1CN(C)C(=O)Nc1ccc(F)cc1,-4
COc1ccc(S(=O)(=O)Nc2cccc3c2O[C@H](CN(C)C)[C@H](C)CN([C@H](C)CO)C3=O)cc1,6
C[C@@H]1CN([C@@H](C)CO)C(=O)c2cc(NC(=O)Cn3cnnn3)ccc2O[C@H]1CN(C)C,4
Cc1ccc(S(=O)(=O)N(C)C[C@@H]2Oc3ccc(NC(=O)c4ccncc4)cc3CC(=O)N([C@@H](C)CO)C[C@H]2C)cc1,-8
CN(C)C(=O)c1ccc(-c2ccc3c(c2)[C@H]2[C@H](CCN2Cc2ccc4c(c2)OCO4)[C@H](CO)N3)cc1,2
CCS(=O)(=O)Nc1ccc2c(c1)C(=O)N(C)C[C@H](OC)[C@@H](C)CN(C(=O)C1CC1)[C@@H](C)CO2,-7
COc1ccccc1C#Cc1ccc([C@H]2[C@@H](CO)N3CCCCN(CCC(F)(F)F)C[C@H]23)cc1,21
O=S(=O)(c1ccccc1F)N1CCCCN2[C@H](CO)[C@H](c3ccc(-c4ccncc4)cc3)[C@@H]2C1,5
COc1ccc(NC(=O)N(C)C[C@@H]2Oc3ccc(NC(=O)Cn4cnnn4)cc3C(=O)N([C@@H](C)CO)C[C@H]2C)cc1,-8
COc1cccc(CN2CCCCN3[C@H](CO)[C@@H](c4ccc(-c5cccnc5)cc4)[C@H]3C2)c1,-10
CCCC#Cc1ccc2c(c1)[C@@H]1[C@@H](CCN1S(=O)(=O)c1ccc(F)cc1)[C@@H](CO)N2C,-6
COc1ccc(NC(=O)N2CCCCN3[C@H](CO)[C@@H](c4ccc(-c5ccccc5C)cc4)[C@H]3C2)cc1,-11
C[C@@H]1CN([C@@H](C)CO)C(=O)c2cccc(NS(=O)(=O)c3cccs3)c2O[C@H]1CN(C)Cc1ccc(-c2ccccc2)cc1,-10
CC(C)NC(=O)N(C)C[C@@H]1Oc2ccc(NC(=O)CCCN(C)C)cc2C(=O)N([C@@H](C)CO)C[C@H]1C,-2
C[C@@H]1CN([C@@H](C)CO)C(=O)Cc2cc(NS(=O)(=O)c3ccc(Cl)cc3)ccc2O[C@@H]1CN(C)C,7
CCCNC(=O)N1[C@H](CO)[C@@H]2c3ccccc3N(C(=O)Nc3cccc(Cl)c3)C[C@@H]21,17
C[C@@H]1CN([C@@H](C)CO)C(=O)c2cc(NC(=O)NC3CCCCC3)ccc2O[C@@H]1CN(C)Cc1ccc(C(=O)O)cc1,-1
OC[C@@H]1[C@H](c2ccc(C#CC3(O)CCCC3)cc2)[C@H]2CN(Cc3ccncc3)CCCCN12,22
COCC(=O)N1[C@H](CO)[C@H](c2ccccc2)[C@H]1CNC(=O)c1ccccn1,-8
C[C@H]1CN([C@@H](C)CO)C(=O)c2cccc(NC(=O)c3cnccn3)c2O[C@@H]1CN(C)S(C)(=O)=O,-3
N#Cc1ccc(-c2ccc3c(c2)[C@@H]2[C@@H](CCN2C(=O)C2CCCCC2)[C@H](CO)N3)cc1,3
C[C@@H]1CN([C@H](C)CO)C(=O)c2c(c3ccccc3n2C)-c2ccccc2CO[C@H]1CN(C)C(=O)c1ccccc1,-3
CC1C=NC(S(=O)(=O)N2CC[C@@H]3[C@H](CO)N(C)c4ccc(-c5ccc(F)cc5)cc4[C@@H]32)=N1 (stereo not given in full),-13
O=C(NC[C@@H]1[C@H](c2ccccc2)[C@@H](CO)N1C(=O)Cc1ccncc1)C1CCC1,-5
COCCNC(=O)C[C@@H]1C[C@@H]2c3cc(NC(=O)NC4CCCC4)ccc3O[C@@H]2[C@H](CO)O1,-9
COc1cccc(-c2ccc3c(c2)[C@@H]2[C@@H](CCN2C(=O)c2ccc(F)cc2)[C@@H](CO)N3)c1,4
O=C(c1ccccn1)N1C[C@H]2[C@@H](c3ccccc31)[C@H](CO)N2C(=O)C1CCOCC1,-2
C[C@@H]1CN([C@H](C)CO)C(=O)c2cc(NS(=O)(=O)c3ccc(F)cc3)ccc2O[C@@H]1CN(C)CC1CC1,-11
COc1ccc(NC(=O)N(C)C[C@H]2Oc3ccc(NC(=O)Nc4ccccc4)cc3C(=O)N([C@H](C)CO)C[C@H]2C)cc1,4
C[C@@H]1CN([C@@H](C)CO)C(=O)c2cccc(NC(=O)C3CCCCC3)c2O[C@H]1CN(C)C(=O)Nc1ccc2c(c1)OCO2,-11
CN1c2ccc(-c3ccccc3)cc2[C@H]2[C@H](CCN2C(=O)Cc2ccccc2)[C@H]1CO,2
COC(=O)[C@H]1N[C@H]2c3ccc(C4=CCCCC4)c(=O)n3C[C@H]2[C@@H]1CO,10

Four of these compounds in a different format:
UUG fidelity | Structure
4 | C[C@@H]1CN([C@@H](C)CO)C(=O)c2cc(NC(=O)Cn3cnnn3)ccc2O[C@H]1CN(C)C
-8 | Cc1ccc(S(=O)(=O)N(C)C[C@@H]2Oc3ccc(NC(=O)c4ccncc4)cc3CC(=O)N([C@@H](C)CO)C[C@H]2C)cc1
2 | CN(C)C(=O)c1ccc(-c2ccc3c(c2)[C@H]2[C@H](CCN2Cc2ccc4c(c2)OCO4)[C@H](CO)N3)cc1
-7 | CCS(=O)(=O)Nc1ccc2c(c1)C(=O)N(C)C[C@H](OC)[C@@H](C)CN(C(=O)C1CC1)[C@@H](C)CO2

Back to the main list, starting three compounds before the break.
Compound,UUG fidelity
C[C@@H]1CN([C@@H](C)CO)C(=O)c2cccc(NC(=O)C3CCCCC3)c2O[C@H]1CN(C)C(=O)Nc1ccc2c(c1)OCO2,-11
CN1c2ccc(-c3ccccc3)cc2[C@H]2[C@H](CCN2C(=O)Cc2ccccc2)[C@H]1CO,2
COC(=O)[C@H]1N[C@H]2c3ccc(C4=CCCCC4)c(=O)n3C[C@H]2[C@@H]1CO,10
O=C(c1cccc(F)c1)N1C[C@@H]2[C@H](c3ccccc31)[C@@H](CO)N2C(=O)C1CC1,0
CN1[C@H](CO)[C@H]2c3ccccc3N(C(=O)Nc3cc(F)ccc3F)C[C@H]21,-3
CN(C[C@@H]1N[C@@H](CO)[C@@H]1c1ccc(-c2cccc(F)c2)cc1)S(C)(=O)=O,-12
CN1CCN(C(=O)C[C@@H]2CC[C@@H]3[C@H](COC[C@@H](O)CN3S(=O)(=O)c3cccc(Cl)c3)O2)CC1,4
O=C(c1cccnc1)N1CCCCN2[C@H](C1)[C@H](c1ccc(C#Cc3ccccc3)cc1)[C@@H]2CO,-9
CCN1[C@@H]2c3ccc(-c4ccccc4OC)c(=O)n3C[C@H]1[C@H](CO)[C@H]2C(=O)N1CCOCC1,13
C[C@H](CO)N1C[C@H](C)[C@H](CN(C)S(=O)(=O)c2cccs2)Oc2ccc(NC(=O)CCC(F)(F)F)cc2C1=O,1
CCC(=O)Nc1ccc2c(c1)C(=O)N(C)[C@H]1CC[C@@H](CC(=O)O)O[C@H]1CO2,-12
CC(C)NC(=O)Nc1ccc2c(c1)C(=O)N([C@H](C)CO)C[C@@H](C)[C@H](CN(C)S(=O)(=O)c1ccc(F)cc1)O2,-1
Cc1noc(C)c1S(=O)(=O)Nc1cccc2c1O[C@H](CN(C)Cc1ccc3c(c1)OCO3)[C@H](C)CN([C@@H](C)CO)C2=O,9
C[C@@H]1CN([C@@H](C)CO)C(=O)c2cccc(NC(=O)c3ccc(-c4nccs4)cc3)c2O[C@H]1CN(C)C(=O)NC1CCCCC1,21
Cc1ccccc1S(=O)(=O)N1CC[C@@H]2[C@H]1c1cc(-c3ccc(C#N)cc3)ccc1N(C)[C@H]2CO,-17
C[C@H](CO)N1C[C@H](C)[C@H](CN(C)C(=O)NC2CCCCC2)Oc2ccc(NS(=O)(=O)c3cn(C)cn3)cc2C1=O,5
C[C@H]1CN([C@@H](C)CO)C(=O)c2cccc(NS(=O)(=O)c3ccc(F)cc3)c2O[C@H]1CN(C)Cc1ccncc1,-15
COc1ccc(C#Cc2ccc3c(c2)[C@H]2[C@H](CCN2S(=O)(=O)c2ccccc2C)[C@H](CO)N3C)cc1,-14
C[C@H](NC(=O)C[C@H]1C[C@H]2c3cc(NC(=O)C4CCC4)ccc3O[C@H]2[C@@H](CO)O1)c1ccccc1,-12
CO[C@H]1CN(C)C(=O)c2cc(NC(=O)NC(C)C)ccc2OC[C@@H](C)N(C)C[C@H]1C,-15
O=C(NC[C@@H]1[C@@H](c2ccccc2)[C@@H](CO)N1Cc1ccccn1)C1CCC1,-27
CN1c2ccc(-c3ccc(F)cc3)cc2[C@@H]2[C@@H](CCN2C(=O)c2ccncc2)[C@@H]1CO,2
O=C(c1ccccn1)N1C[C@H]2[C@@H](c3ccccc31)[C@@H](CO)N2C(=O)Cc1ccccc1,-14
O=C(c1ccc2c(c1)OCO2)N1C[C@@H]2[C@H](c3ccccc31)[C@@H](CO)N2C(=O)CC1CC1,8
COc1ccccc1C#Cc1ccc([C@H]2[C@H]3CN(CCC(F)(F)F)CCCCN3[C@H]2CO)cc1,28
COc1cccc(C#Cc2ccc3c(c2)[C@@H]2[C@@H](CCN2C(=O)c2ccc(F)cc2)[C@@H](CO)N3)c1,-13
COc1cccc(C(=O)Nc2ccc3c(c2)C(=O)N(C)[C@H]2CC[C@H](CC(=O)NCc4ccccc4F)O[C@@H]2CO3)c1,2
C[C@H]1CN([C@@H](C)CO)C(=O)c2cc(NS(C)(=O)=O)ccc2O[C@H]1CN(C)S(=O)(=O)c1cn(C)cn1,-13
Cc1cccc(S(=O)(=O)N2C[C@@H](O)COC[C@@H]3O[C@H](CC(=O)N4CCN(C)CC4)CC[C@H]32)c1,-6
COc1cccc(S(=O)(=O)N2CCCCN3[C@@H](CO)[C@H](c4ccc(-c5cccnc5)cc4)[C@@H]3C2)c1,0
CO[C@H]1CN(C)C(=O)c2ccc(NC(=O)c3cnccn3)cc2OC[C@H](C)N(C(=O)C2CC2)C[C@@H]1C,-4
O=C(CC(F)(F)F)N1C[C@H]2[C@@H](c3ccccc31)[C@@H](CO)N2CC1CCCCC1,1
COc1ccc(S(=O)(=O)N2CC[C@H]3[C@@H](CO)N(C)c4ccc(-c5ccccc5F)cc4[C@H]32)cc1,-9
COCC(=O)Nc1ccc2c(c1)[C@H]1C[C@@H](CC(=O)NCC3CC3)O[C@@H](CO)[C@H]1O2,-17
C[C@H](CO)N1C[C@H](C)[C@H](CN(C)C(=O)Nc2cccc3ccccc23)Oc2ncc(C#CCC3CCCC3)cc2C1=O,-8
C[C@H](CO)N1C[C@H](C)[C@H](CN(C)C(=O)Nc2ccccc2)Oc2ccc(N(C)C)cc2C1=O,-8
CN1C(=O)c2cc(NS(C)(=O)=O)ccc2OC[C@@H]2O[C@H](CC(=O)O)CC[C@H]21,-4
C[C@H]1CN([C@@H](C)CO)C(=O)Cc2cc(NC(=O)Cn3cnnn3)ccc2O[C@@H]1CN(C)Cc1ccncc1,-18
C[C@@H]1CN([C@@H](C)CO)C(=O)Cc2cc(NC(=O)C3CCCCC3)ccc2O[C@H]1CN(C)C(=O)NC1CCCCC1,47*
CN1c2ccc(-c3ccc(F)cc3)cc2[C@H]2[C@H](CCN2C(=O)c2ccccn2)[C@@H]1CO,0
O=S(=O)(Cc1ccccc1)N1CCCCN2[C@H](CO)[C@@H](c3ccc(-c4ccc(F)cc4)cc3)[C@@H]2C1,9
CN1CCN(C(=O)C[C@H]2CC[C@@H]3[C@H](COC[C@@H](O)CN3Cc3ccc(Oc4ccccc4)cc3)O2)CC1,-9
CCC(=O)N1[C@H](CNC(=O)CN(C)C)[C@H](c2ccc(C3=CCCC3)cc2)[C@@H]1CO,15
CO[C@@H]1CN(C)C(=O)c2cc(NC(=O)Nc3ccccc3F)ccc2OC[C@@H](C)N(Cc2ccccc2C(=O)O)C[C@@H]1C,1
O=C(C1CCC1)N1C[C@@H]2[C@H](c3ccccc31)[C@@H](CO)N2C(=O)Nc1cccc(F)c1,4
C[C@H](CO)N1C[C@H](C)[C@H](CN(C)Cc2ccc(C(=O)O)cc2)Oc2c(NS(C)(=O)=O)cccc2C1=O,-12
C[C@@H]1CN([C@H](C)CO)C(=O)Cc2cc(NC(=O)c3ccncc3)ccc2O[C@@H]1CN(C)Cc1ccc(C(=O)O)cc1,-4
OC[C@H]1[C@@H](c2ccc(C3=CCCC3)cc2)[C@@H]2CN(Cc3ccncc3)CCCCN12,-7
C[C@H]1CN([C@@H](C)CO)C(=O)c2cccc(NC(=O)C3CCCCC3)c2O[C@H]1CN(C)Cc1ccc(Cl)c(Cl)c1,-5
C[C@H]1CN([C@@H](C)CO)C(=O)c2cccc(NS(=O)(=O)c3ccccc3)c2O[C@@H]1CN(C)C(=O)Nc1ccc(F)cc1,9

Screening data deposited in PubChem by Broad Institute.
